Screens: PubChem, several laboratories
RN4220 kill – S. aureus RN4220 growth inhibition; OD600, 16 h; inhibition, % (concentration not given with the values); 330,000 tested, 0.33% active; AID 1259311;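 active = z-score of -3 or lower and OD600 up to 0.18 on both plates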;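 note: plate controls were untreated cells for no effect and reference antibiotic for full effect; stock transfer was 100 nL into about 80 µL; one replicate is shown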
Sa ugtP lethal – compounds lethal to S. aureus RN4220 ugtP deletion mutant. growth inhibition, % (no concentration beside the values). OD600 growth, 16 h; some inactives read as strong as hits. 330,000 tested, 0.54% active;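 active = z-score under -3 and OD600 up to 0.15 on both plates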;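 note: plate controls were untreated wells for no effect and antibiotic for full effect; wells of about 80 µL received 100 nL stock; the first replicate is given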
PrP UTR inh – suppresses PrP 5' UTR mRNA reporter expression; cell-based PrP 5' UTR mRNA reporter, plate reader; inhibition, % (no concentration beside the values); 340,000 tested, 0.35% active; AID 488862;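 active = every replicate at 50% or more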;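 note: 0 = median of the neutral control wells; tested in H4 reporter cells; numbers are from one replicate; inactives centre near -14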
Bead autofluor – flagged as autofluorescent in microsphere protease counterscreen; AID 624483; 360,000 tested, 3.1% active; fluorescence intensity (test concentration not listed); compound autofluorescence counterscreen, microsphere flow cytometry; hits give high values;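 active = at least 3 SD above the mean of all compounds, about 16000 in these data; inconclusive = too few beads counted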;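 note: 100 nL of 1 mM stock went into each well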
BJeLR lethal – kills HRASV12-expressing BJeLR cells; BJeLR (HRASV12) viability, CellTiter-Glo ATP luminescence, 48 h; reference of the scale not given here; inhibition, % (concentration not given with the values); 300,000 tested, 0.17% active; AID 1554;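 active = replicate mean above 50%; inconclusive = above 50% but judged a plate artefact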;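 note: 50 nL library stock added to about 25 µL; numbers are from one replicate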
Mtb hypoxia rep – Mtb hypoxia fluorescent reporter inhibition; fluorescence inhibition, % (test concentration not listed); 300,000 tested, 0.1% active; M. tuberculosis hypoxia-regulated fluorescent reporter, fluorescence;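 active = 35 to 45% if threefold the growth effect, above 45% if 1.5-fold the growth effect; inactive = the rest, general growth blockers included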;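 note: wells of about 50 µL received 100 nL stock; 0% = vehicle wells and 100% = reference inhibitor wells; whole bacteria with a GFP reporter of the hypoxia response; strong numbers were not always called active; many hits fall short of the cut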
Mtb hypoxia rep growth – also measured in Mtb hypoxia rep; calls as there; growth inhibition, %; measured here: M. tuberculosis growth (absorbance);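 0% = vehicle and 100% = reference antibiotic; read after six days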
Numbers without * were called inactive; ? = inconclusive; . = not tested or not shown. Compounds were not picked by outcome; about 4% have a hit in one of these screens.

compound	RN4220 kill	Sa ugtP lethal	PrP UTR inh	Bead autofluor	BJeLR lethal	Mtb hypoxia rep	Mtb hypoxia rep growth
O=[N+]([O-])c1ccc(O)c(/C=N/n2c(-c3ccccc3)n[nH]c2=S)c1	.	.	-20.8	3399	-29.1	.	.
CC(C)Cc1cc(C(=O)Nc2ccc(Br)cc2)no1	6.0	0.2	-29.5	3942	0.3	7.7	-4.0
Cc1nn(-c2ccc(Cl)nn2)c(=O)c2ccccc12	-2.1	-1.7	-39.3	4280	-8.9	0.6	2.9
COc1cc(/C=C/C(=O)OC(C)C(=O)Nc2c(C)n(C)n(-c3ccccc3)c2=O)ccc1O (configuration not stated)	3.3	5.4	-20.6	4643	-7.1	-8.1	-3.9
CCCCCc1cc(=O)oc2c(C(CCN3CCCCC3)c3ccc(OC)cc3)c(OC)cc(OC)c12 (configuration not stated)	.	.	-9.1	5911	0.9	.	.
O=c1c2ccccc2nc(-c2ccccc2Cl)n1O	3.8	-3.4	-23.7	3282	2.6	6.0	10.9
O=C(CCN1C(=O)/C(=C\c2ccccc2)SC1=S)N1CCCCC1	6.6	-6.1	-15.3	3832	11.2	.	.
O=C(Nc1ccc(Cl)cc1)Nc1ccc(N2CCC(C(F)(F)F)CC2)nc1	0.8	-1.4	-5.7	3636	18.2	-2.0	6.5
Cc1cc(C(=O)N/N=C/c2cc(Cl)cc([N+](=O)[O-])c2O)n[nH]1	.	.	-26.8	5112	2.5	.	.
Cc1occc1C(=O)Nc1cccc(C(=O)NCc2ccccc2)c1	3.5	10.7	-8.5	8185	-7.9	3.6	2.3
Cc1ccc(/C(O)=C/c2nc3cc(C)ccc3oc2=O)cc1	2.7	2.6	.	6392	-4.8	0.4	3.0
O=C(OCc1nc2ccccc2s1)[C@@H]1CCCN1S(=O)(=O)c1ccccc1F	-2.1	7.3	-2.4	2835	2.5	.	.
CN1C(=O)COc2ccc(C(=O)c3oc4ccccc4c3-c3cnc4c(c3)COc3ccccc3-4)cc21	-0.1	8.9	.	.	-0.4	1.1	3.9
O=C(COC(=O)c1ccco1)NCC1CCCCC1	0.8	4.9	-24.0	?	.	7.6	2.9
COc1cc2c(cc1OC)-c1nnc(-c3cccs3)n1C1(CCCC1)C2	1.7	5.5	-26.4	2402	-4.5	.	.
Cc1nn(CC2CC2)c(=O)n1-c1ccc(F)cc1	0.4	-1.4	-16.2	4381	4.1	9.8	-1.7
O=C(NCCN1CCOCC1)c1cccnc1SCc1ccccc1Cl	1.9	2.9	-17.6	2780	6.8	3.9	2.5
O=C1CC(c2ccccc2)CC(O)=C1C=NCCCN1CCOCC1 (configuration not stated)	5.5	9.1	-32.1	6723	0.3	7.2	7.0
O=C(CN1CCOCC1)NN=Cc1ccc(-c2cccc(Cl)c2Cl)o1	0.1	-5.6	.	.	.	7.2	-1.5
CC(=O)Nc1ccc(N/C=C2/CCCC2=O)cc1	1.8	0.2	-19.8	4094	2.0	3.5	15.4
O=C(CSc1nc(-c2cccs2)cc(C(F)(F)F)n1)Nc1cc(OCC(F)(F)F)cc([N+](=O)[O-])c1	34.1	-4.8	-30.4	2286	-13.0	-0.2	1.7
O=C(NC1CCCCCC1)C1CCN(C(=O)Cc2ccccc2)CC1	8.6	-1.0	-0.9	3366	-0.7	5.5	11.3
Cc1ccc(CNC(=O)C2CCN(S(=O)(=O)N3CC(C)CC(C)C3)CC2)cc1 (configuration not stated)	-2.2	0.7	-20.7	5715	4.3	4.3	-3.6
Cc1ccc(S(=O)(=O)Nc2cc(=O)[nH]c(SCc3ccc(Cl)cc3)n2)cc1	1.8	4.4	1.8	2212	.	10.2	-3.6
c1ccc(C2=Nc3ccccc3OC2)cc1	6.5	9.3	-35.0	4100	8.3	.	.
COc1ccc(Cl)cc1S(=O)(=O)N(C)CC(=O)NCc1ccccn1	1.4	12.4	-32.3	3898	5.0	7.5	1.0
CC(C)Oc1c(Cl)cc(CNC(C)(C)CO)cc1Cl	2.9	3.3	4.5	10693	3.1	6.6	5.1
CCOC(=O)c1nn(-c2ccc(F)cc2)c(=O)c(C#N)c1C	4.4	0.1	6.7	.	-18.1	12.5	9.0
COc1cccc2[nH]c3c(=O)[nH]cnc3c12	5.7	0.7	-17.2	4111	0.7	10.7	3.7
COc1cccc(CC2(CO)CCN(S(=O)(=O)N(C)C)CC2)c1	3.7	9.1	-8.0	4024	-3.1	-2.8	3.9
Cc1ccc(S(=O)(=O)Nc2ccc3nc(C)sc3c2)cc1	-6.7	-5.3	-18.3	2802	-0.1	16.7	9.4
Cn1ccc(NC(=O)Nc2cccc([N+](=O)[O-])c2)n1	9.2	-17.7	-11.6	4756	-2.2	10.4	3.6
CC(C)Oc1ccc(CC(=O)NNC(=S)Nc2ccc(Br)cc2)cc1	9.1	16.0	-7.5	8004	0.1	14.5	6.5
Cc1ccccc1NC(=O)c1cc2c(C)nc3ccccc3c2o1	2.0	-2.0	-3.4	2193	2.4	0.2	-11.6
Cc1ccc(NS(=O)(=O)c2ccc(OCC(=O)NCc3cccnc3)cc2)cc1	5.6	2.7	-16.2	10501	-5.4	1.7	-2.6
Cc1nn(C)c(C)c1S(=O)(=O)N1CCCC(C(=O)NCC2COc3ccccc3O2)C1 (configuration not stated)	0.9	2.6	-29.7	5828	.	.	.
COc1ccc(-c2csc(N(CC3CCCO3)C(=O)c3cccs3)n2)cc1 (configuration not stated)	2.4	24.8	-8.2	22735*	-0.4	3.6	0.6
COc1ccc(NC(=O)c2cc(C)n(Cc3cccs3)c2C)cc1	1.6	3.5	-106.0	.	-8.8	-5.5	-6.0
Cc1ccccc1N(CC(=O)NN=Cc1ccc(N(C)C)cc1)C(=O)c1ccccc1	-4.3	4.7	.	.	.	-8.5	-8.3
CCOC(=O)c1c(NC(=O)C(=O)NN=C(C)c2ccc(OC)cc2)sc2c1CCCCC2	17.9	-8.0	.	.	.	6.6	5.2

Copied from the list:
Entry for `Cc1ccc(CNC(=O)C2CCN(S(=O)(=O)N3CC(C)CC(C)C3)CC2)cc1` (configuration not stated) in PrP UTR inh: -20.7
Entry for `COc1cccc2[nH]c3c(=O)[nH]cnc3c12` in Mtb hypoxia rep: 10.7

(next part)
compound	RN4220 kill	Sa ugtP lethal	PrP UTR inh	Bead autofluor	BJeLR lethal	Mtb hypoxia rep	Mtb hypoxia rep growth
CC1(c2ccccc2Cl)NC(=O)N(CC(=O)Nc2cccnc2Cl)C1=O (configuration not stated)	0.8	7.9	2.6	?	-4.8	2.5	-4.9
O=[N+]([O-])c1cc(S(=O)(=O)N2CCCCC2)ccc1NCCN1CCOCC1	1.3	8.0	-14.0	3120	9.1	3.7	1.5
CS(=O)(=O)c1ccc(Cl)c(NC(=O)CN2C(=O)C3CCCCC3C2=O)c1 (configuration not stated)	-1.5	-1.6	-20.1	6177	-1.6	0.6	6.9
CCOC(=O)c1cc(NC(=O)N2CCCc3ccccc32)c(C)nc1C	21.6	12.8	8.0	2364	3.4	5.2	8.5
CN(C)N=Cc1cn(-c2ccccc2)nc1-c1cccnc1	-0.5	-4.6	.	.	.	17.0	4.9
CCOC(=O)CNC(=O)/C(=C\c1ccc(F)cc1)NC(=O)c1ccccc1	1.1	-68.5	-6.8	3325	-1.2	10.1	0.6
S=c1[nH]nc(-c2ccccn2)n1N=Cc1c(Cl)cccc1Cl	17.6	4.6	.	.	.	8.8	10.0
Cc1ccc(NC(=S)NCc2cccnc2)cc1	-3.7	0.8	3.9	3185	1.2	3.5	4.3
Cc1cccc(C(=O)Nc2cccc(C(=O)N/N=C/c3ccncc3)c2)c1	.	.	-19.7	2780	-6.7	.	.
CN(CCCCOc1ccc(F)cc1)Cc1ccccc1	6.1	7.3	-13.2	4123	-6.9	4.0	17.4
Cn1c(CCN2CCN(c3ccccn3)CC2)nc2cc(NS(=O)(=O)c3ccccc3)ccc21	2.1	5.8	-2.3	6984	-2.5	17.4	10.4
CCCNC(=O)COCc1cc(-c2ccc3c(c2)OCO3)on1	-0.9	2.6	-8.5	3140	2.7	0.8	-1.5
CCOC(=O)c1c([N+](=O)[O-])c(C)[nH]c(=O)c1C#N	4.8	9.4	-17.9	2809	7.6	1.8	2.3
O=C(N[C@@H](Cc1ccccc1)C(=O)OCc1ccccc1)c1nc[nH]c1C(=O)NCc1ccccc1	-13.1	-22.4	-7.4	2945	14.2	9.8	6.1
C/C(=N\Nc1nc(C)c(C)s1)c1ccc([N+](=O)[O-])cc1	.	.	-38.8	5328	1.0	.	.
CCC(=NNC(=O)C(N)=O)c1ccccc1O	2.4	-0.5	.	.	.	3.5	-3.5
S=C(NCc1ccncc1)Nc1cccc(Cl)c1	1.8	-0.2	4.6	2068	-12.9	1.7	5.6
Cc1ccsc1C(=O)OCC(=O)N1C(C)CCCC1C (configuration not stated)	4.9	1.3	-9.0	3759	.	-0.6	1.6
COc1ccccc1/C=C/C(=O)OCC(=O)Nc1ccc2c(c1)OCO2	8.3	4.0	-2.3	5708	.	-5.2	3.9
COCCCn1c2nc3ccccc3nc2c2c(=O)n(Cc3cccs3)cnc21	-0.8	-1.7	.	.	5.6	-2.0	1.4

Gathered by group, the entries above containing a cyano group (2)
compound	RN4220 kill	Sa ugtP lethal	PrP UTR inh	Bead autofluor	BJeLR lethal	Mtb hypoxia rep	Mtb hypoxia rep growth
CCOC(=O)c1nn(-c2ccc(F)cc2)c(=O)c(C#N)c1C	4.4	0.1	6.7	.	-18.1	12.5	9.0
CCOC(=O)c1c([N+](=O)[O-])c(C)[nH]c(=O)c1C#N	4.8	9.4	-17.9	2809	7.6	1.8	2.3

Rewritten with values under each structure: entries from further up
Results follow in this order: RN4220 kill	Sa ugtP lethal	PrP UTR inh	Bead autofluor	BJeLR lethal	Mtb hypoxia rep	Mtb hypoxia rep growth
S=C(NCc1ccncc1)Nc1cccc(Cl)c1
 : 1.8	-0.2	4.6	2068	-12.9	1.7	5.6
Cc1ccsc1C(=O)OCC(=O)N1C(C)CCCC1C (configuration not stated)
 : 4.9	1.3	-9.0	3759	.	-0.6	1.6
COc1ccccc1/C=C/C(=O)OCC(=O)Nc1ccc2c(c1)OCO2
 : 8.3	4.0	-2.3	5708	.	-5.2	3.9
COCCCn1c2nc3ccccc3nc2c2c(=O)n(Cc3cccs3)cnc21
 : -0.8	-1.7	.	.	5.6	-2.0	1.4

Carrying on.
compound	RN4220 kill	Sa ugtP lethal	PrP UTR inh	Bead autofluor	BJeLR lethal	Mtb hypoxia rep	Mtb hypoxia rep growth
COCCCN(C(=O)c1ccc2ccccc2n1)c1c(N)n(Cc2ccccc2)c(=O)[nH]c1=O	-0.2	-4.1	-15.2	6722	.	-12.7	-10.6
CC(C)(C)OC(=O)N1Cc2ccccc2C[C@H]1C(=O)NCC(=O)NC1CCCC1	0.4	3.4	-12.4	4252	5.0	2.2	-4.6
O=C(NC1CC2CCCC(C1)N2C(=O)Nc1cccc(F)c1)C1CC1 (configuration not stated)	1.1	2.8	5.6	5259	-4.9	-3.6	-5.3
Cc1cc(C)c2c(=O)cc(C(F)(F)F)oc2n1	-0.4	6.2	-18.9	4168	-0.6	14.0	1.1
COCCNC(=O)CCC1CCN(Cc2ccc(-c3ccccc3)cc2)CC1	1.1	-0.4	-13.1	4021	-4.9	8.3	11.9
CCC1(C)Cc2c(C#N)c(N)n(N)c(=S)c2CO1 (configuration not stated)	5.6	0.5	-10.4	3844	-5.1	.	.
CC(=O)Nc1ccc(OCC(=O)N(CC(C)C)C2CCS(=O)(=O)C2)cc1 (configuration not stated)	-1.8	12.0	-18.2	3607	-6.6	2.3	19.9
CCc1cccc(NC(=O)c2ccc(NS(=O)(=O)c3c(C)noc3C)cc2)c1	-3.8	-7.3	-2.8	3687	-3.2	.	.
CCN(C(=O)c1cc2c(=O)[nH]c3ccc(C)cc3c2s1)c1cccc(C)c1	1.9	5.5	-16.0	5199	2.0	1.0	7.6
